HSD17B inh – HSD17B dehydrogenase inhibition; Q99714; Potency, µM (top dose mostly 57.1 µM), for the others: at the highest dose activity change, negative = inhibition, actives largely listed as inhibitors; recombinant HSD17B10, NADH fluorescence kinetic; many of its hits are not listed in these tables; actives 7.6% (n = 75,000); AID 893; active = well fitted inhibition curve with a large enough effect; inconclusive = small, poorly fitted or top-dose-only effect; inactive = no such curve, though single readings can be large or run the other way;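 note: the protocol describes HADH2 (HSD17B10) and not the HSD17B4 of the title; nearly all actives have a fitted effect of over 70% in size; most hits overshoot -100% by far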
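Activity followed as NADH fluorescence increase (ex 360, em 450 nm) every 30 seconds for 4 min, using final 90 uM beta-hydroxybutyryl CoA and 1 mM NAD+. Recombinant His-tagged enzyme, 20 nM, pH 9.0 Tris buffer, 15 min compound preincubation.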
* = called active by the depositor; ? = inconclusive; [ ] = another dose, or the depositor's remark. % is set by controls: 0 for no effect and ±100 for the full control effect; potency is the fitted concentration of half-maximal effect. Only part of the results is shown (hit frequency here may not be typical).

SMILES | HSD17B inh
COc1c(-c2coc3cc4c(cc3c2=O)CC(OC(C)=O)C(C)(C)O4)ccc2c1C=CC(C)(C)O2 (stereo not drawn) | -0.5%
CN(c1cccc(NC(=O)c2ccccc2N(C)S(C)(=O)=O)c1)S(C)(=O)=O | 8.4%
Cn1c(=O)c2c(nc(NC3CCCCC3)n2CC(=O)C23CC4CC(CC(C4)C2)C3)n(C)c1=O | -6.1%
O=C(NC1CS(=O)(=O)CC1NCc1ccccc1)c1ccccc1 (stereo not drawn) | -4.4%
O=C(CC1Nc2ccccc2NC1=O)NC1CCCCC1 (stereo not drawn) | 31.6µM*
Cc1nc(NCCCn2ccnc2)c2oc3ccccc3c2n1 | ?
COc1cc(NC2c3ncccc3C(=O)N2Cc2ccco2)cc(OC)c1 (stereo not drawn) | -27.1%
CC(C)COC(=O)c1nnsc1NC(=O)Nc1ccccc1 | -13.1%
CNc1nn(-c2cccc(Cl)c2)nc1N | -13.7%
CC(=O)N(C(C)=O)c1cccc2c(N(C(C)=O)C(C)=O)cccc12 | -3.1%
CCOC(=O)Cn1c(=O)oc2cc(S(=O)(=O)N3CCC(N4CCCCC4)CC3)ccc21 | 5.0%
Cc1ccc(NC2=NCC(=O)N2Cc2ccc3c(c2)OCO3)c(C)c1 | -3.7%
O=C1c2ccccc2C(=O)N1CNc1ccccc1 | 18.0%
CN1CCN(c2ccc(NC(=O)Cc3ccccc3)cc2)CC1 | 2.0%
CC(=O)c1ccc2c(c1)Nc1ccccc1S2 | -8.8%
COC(=O)c1cccc(Oc2nc3c(c(=O)n(C)c(=O)n3C)n2Cc2ccc(C)cc2)c1 | -3.1%
CCc1c2c(nc3ccc(OC)cc13)OC(CC)C2 (stereo not drawn) | ?
Cc1ccc(N2CC(C(N)=O)CC2=O)cc1C (stereo not drawn) | 3.1%
O=C(NCCCn1ccnc1)NC(C(F)(F)F)C(F)(F)F | 9.3%
CC(C)(C)c1ccc(S(=O)(=O)NCCc2ccncc2)cc1 | 0.7%
CCOC(=O)c1c(C)[nH]c(C(=O)Cn2nnc(-c3ccc(Cl)cc3)n2)c1C | -11.7%
CCCCCc1c(C)nc(N2CCc3ccccc32)[nH]c1=O | 5.5%
COc1cc(CN(C)CC(=O)c2[nH]c(C)c(C(C)=O)c2C)ccc1OC(F)F | -6.4%
O=C(CS(=O)CC(=O)N(CC(=O)NC1CCCC1)C1CCCC1)Nc1ccc(F)cc1 (stereo not drawn) | -3.6%
CS(=O)(=O)Nc1cccc(-c2nccc(Nc3ccc(F)cc3)n2)c1 | 0.2%
CC(C)Sc1nc(N2CCOCC2)c2c(c1C#N)CC(C)(C)SC2 | ?
COc1cccc(N2CCN(C3CC(=O)N(c4ccc(F)c(Cl)c4)C3=O)CC2)c1 (stereo not drawn) | -4.3%
COc1ccc(CNC(=O)c2cccc(N3CCCC3=O)c2)cc1 | 4.6%
CCn1c(=S)sc2c(=O)n(-c3ccccc3)c(SC)nc21 | -5.8%
COc1ccc(C(=O)CSc2nnc(Cn3cnc4ccccc43)o2)cc1 | -8.5%
COc1cccc(C(=O)N2CCCC(c3nc(-c4cccs4)no3)C2)c1 (stereo not drawn) | -1.0%
NC(=O)NC(Cc1ccccc1)C(=O)NCC1(N2CCCCC2)CCCCC1 (stereo not drawn) | -3.2%
O=C(Nc1ccc2c(c1)OCO2)C1CCN(S(=O)(=O)c2cccc3cccnc23)CC1 | ?
S=c1[nH]c2ccc(Cl)cc2[nH]1 | -20.9%
CCSc1nc2c(c(=O)n1CC)SC(C)C2 (stereo not drawn) | 1.8%
COc1cc(C2c3[nH]c4ccccc4c3CC3C(=O)N4C(Cc5c([nH]c6ccccc56)C4c4cc(OC)c(OC)c(OC)c4)C(=O)N32)cc(OC)c1OC (stereo not drawn) | -10.7%[11.4 µM]
O=C(CSc1nnc(-c2cccnc2)n1Cc1ccco1)N1c2ccccc2Sc2ccccc21 | 25.1µM*
COc1cccc(CNC(=O)CN(C)S(=O)(=O)c2cnc[nH]2)c1 | 10.8%
COc1cc2c(cc1OC)-c1cc(NC3CCCCC3)nc(=O)n1CC2 | 31.6µM*
N#CC1=C2SCCN2C(=O)C(C#N)C12CCCCC2 (stereo not drawn) | -6.4%
CCn1ncc(Cl)c1C(=O)Nc1ccncc1 | 1.5%
CC(C)[C@H](NC(=O)OC(C)(C)C)[C@@H](O)CC(=O)OC(C)(C)C | 4.2%[11.4 µM]
COc1ccc2c(c1OC)C(=O)N(C(C)C(=O)O)C2=O (stereo not drawn) | ?
CN(C)CCCCNC(=O)c1ccc(-n2c(=O)c(=O)[nH]c3ccccc32)cc1 | -2.8%
COc1cccc(-c2nc3cc(C)ccc3o2)c1 | 25.1µM*

Among those listed so far, these have a furan ring, fused or not.
SMILES | HSD17B inh
Cc1nc(NCCCn2ccnc2)c2oc3ccccc3c2n1 | ?
COc1cc(NC2c3ncccc3C(=O)N2Cc2ccco2)cc(OC)c1 (stereo not drawn) | -27.1%
O=C(CSc1nnc(-c2cccnc2)n1Cc1ccco1)N1c2ccccc2Sc2ccccc21 | 25.1µM*

Other entries
SMILES | HSD17B inh
CCn1c(SCc2ccc(C)cc2)nnc1-c1cnccn1 | 0.5%
c1ccc(Cn2nnc3c(Nc4ccc5c(c4)OCO5)nc(C4CC4)nc32)cc1 | 31.6µM*
N=c1ccn(Cc2cccc(Cl)c2)cc1 | 5.0%
Cc1ccccc1N1CCN(C(=O)CN2C(=O)c3ccccc3C2=O)CC1 | 12.5%
CCOCCCNC(=O)CN1CCN(c2ccc(F)cc2)CC1 | -11.8%
CCOC(=O)N1CCN(Cc2nc(-c3ccc(C)cc3)no2)CC1 | 2.4%
N#Cc1ccccc1NC(=O)COC(=O)c1ccc(S(=O)(=O)N2CCCC2)cc1 | 2.6%
Cc1ncc2c(c1OC(=O)c1ccccc1)COC(C)(C)OC2 | 20.3%
COC(=O)c1ccc(C(NC(=O)OCc2ccccc2)/C(=C/[C@@H](C)C(=O)NCc2ccc(-c3ccccc3)cc2)c2cccnc2)cc1 (stereo partly drawn) | 6.1%
COc1ccc(S(=O)(=O)Nc2ccc(NC(C)=O)cc2)cc1OC | 4.6%
CCC(=O)CC(NC(=O)OC)c1ccc(F)cc1 (stereo not drawn) | 7.8%[11.4 µM]
CC(C)(O)C#Cc1ccccc1C(=O)NC(CC(N)=O)C(=O)O (stereo not drawn) | 7.6%
COc1cccc(-c2cncnc2NCc2cccc(C)c2)c1 | -9.8%
CN(C)S(=O)(=O)c1cccc(C(=O)C2=C3SC=C(c4ccccc4)N3CC2)c1 | -26.9%
O=C(Nc1nc2c(Cl)cccc2s1)c1ccc(Br)o1 | -18.5%

Two of the compounds above, with tabs:
smiles	HSD17B inh
CCn1c(=S)sc2c(=O)n(-c3ccccc3)c(SC)nc21	-5.8%
COc1ccc(C(=O)CSc2nnc(Cn3cnc4ccccc43)o2)cc1	-8.5%

(further entries)
SMILES | HSD17B inh
CN(C)S(=O)(=O)c1ccc(C(=O)Nc2ccc(OCC(=O)N3CCOCC3)cc2)cc1 | -3.9%
C=CCNc1oc(COc2ccc(C)cc2)nc1C#N | 1.8%
Cc1csc(SCC(=O)Nc2c(C)n(C)n(-c3ccccc3)c2=O)n1 | 14.8%
O=c1c2c(nc3nc(SCc4ccccc4)[nH]n13)CCC2 | 3.5%
Brc1ccccc1-c1nnc(COc2ncnc3c2cnn3-c2ccccc2)o1 | -0.6%
CC(C)C(NS(=O)(=O)c1ccc(Br)s1)C(=O)O (stereo not drawn) | 4.6%
O=C(O)CNC1=NCCC1 | 2.7%
CC(C)NC(=O)Cn1nnc(-c2ccc(Cl)cc2)n1 | -0.7%
Cc1nc(NC(=O)c2cc3c(s2)CCCCC3)sc1C(=O)N(C)C | -13.4%
CN1C(=C2C(=O)OC(C)(C)OC2=O)Sc2ccccc21 | -23.8%
CCOC(=O)C1CCCCN1Cc1ccc(F)c(Br)c1 (stereo not drawn) | -4.2%
COc1ccc(N=c2oc3c(OC)cccc3cc2C(=O)NCc2ccco2)cc1OC | 9.1%
c1ccc(-n2nnnc2SCc2cn3ccccc3n2)cc1 | 0.7%
COc1ccc(C(=O)NCC2OCCc3ccccc32)c(O)c1 (stereo not drawn) | 20µM*
O=C(O)CCC(=O)NC1CCCCCCC1 | 5.1%
O=C(CSCc1cnn(-c2ccccc2)c1-n1cccc1)NCc1cccs1 | -13.6%
C=CCn1c(=O)/c(=C/c2ccc(Cl)cc2)s/c1=C(/C#N)c1nnc2n1CCCCC2 | 16.9%
CC1CC(C)CN(CC(=O)Nc2ccc(S(N)(=O)=O)cc2)C1 (stereo not drawn) | -1.8%
Cc1cc(NS(=O)(=O)c2ccc(NC(=O)C(C)N3C(=O)c4ccccc4C3=O)cc2)nc(C)n1 (stereo not drawn) | -4.1%
CCCC1=C(C(=O)OCC)C(c2ccc(O)cc2)n2ncnc2N1 (stereo not drawn) | -0.5%
COCCCNC(=O)CCn1c(=O)c2ccccc2n(CC(=O)Nc2ccc(C)cc2C)c1=O | 5.5%
O=C(O)CCC(=O)Nc1ccc2c(c1)oc1ccccc12 | 5.5%
CC1(Cc2cn(CCC#N)c3ccccc23)OCCO1 | 1.6%
C/C=C/Cn1c(SCc2ccccc2)nc2c1c(=O)[nH]c(=O)n2C | -12.1%
N#Cc1c(N2CCN(C(=O)c3ccco3)CC2)nc(-c2ccccc2)c2c1CCCC2 | 31.6µM*
Cc1cccn2cc(CNC(=O)CC3CCCC3)nc12 | ?
COc1ccc(NC(=O)Nc2cccs2)cc1OC | ?
Cc1cc(N2CCN(c3ccccc3)CC2)nc(-n2nc(C)cc2C)n1 | 2.2%
COc1ccc(S(=O)(=O)NC(CC(=O)N2CCc3ccccc32)c2ccco2)cc1 (stereo not drawn) | -4.9%
COc1ccc(C)cc1NC(=O)C1CCN(S(=O)(=O)c2cccc3cccnc23)CC1 | 0.5%

Rewritten as labelled records: part of the list above
SMILES: O=C(CSCc1cnn(-c2ccccc2)c1-n1cccc1)NCc1cccs1
  HSD17B inh: -13.6%
SMILES: C=CCn1c(=O)/c(=C/c2ccc(Cl)cc2)s/c1=C(/C#N)c1nnc2n1CCCCC2
  HSD17B inh: 16.9%
SMILES: CC1CC(C)CN(CC(=O)Nc2ccc(S(N)(=O)=O)cc2)C1 (stereo not drawn)
  HSD17B inh: -1.8%
SMILES: Cc1cc(NS(=O)(=O)c2ccc(NC(=O)C(C)N3C(=O)c4ccccc4C3=O)cc2)nc(C)n1 (stereo not drawn)
  HSD17B inh: -4.1%

Next records.
SMILES | HSD17B inh
COCCn1c(SCC#N)nnc1-c1ccccc1O | -5.9%
COc1ccc(OCC2CC3C(CCC(C)C3c3ccc(Br)cc3)C(=O)O2)cc1 (stereo not drawn) | -2.4%[11.4 µM]
Cc1cc2c(cc(C(=O)NCCCN3CCOCC3)n2Cc2ccc(Cl)cc2)o1 | -6.7%
CCC(c1nnnn1CCOC)N1CCN(c2cccc(C(F)(F)F)c2)CC1 (stereo not drawn) | -18.5%
O=C(CSc1nnc(COc2ccccc2)o1)Nc1nccs1 | 4.1%
CCOc1ccccc1-c1nnc(SCC(=O)Nc2ccccc2)o1 | 1.2%
[O-][n+]1onc2c1C(N1CCOCC1)CCC2N1CCOCC1 (stereo not drawn) | -4.3%
COC(=O)c1ccc(CSc2nc3c(cnn3-c3ccccc3)c(=O)[nH]2)o1 | ?
COc1ccc(S(N)(=O)=O)cc1C(=O)NCC1(N2CCCCC2)CCCCC1 | 2.7%
Cc1ccc2cc3cc(C(=O)NCCCN4CCCCCC4)oc3nc2c1 | 15.8µM*
O=C(NCCN1CCOCC1)c1ccncc1 | -3.1%
CN1CCN(Cc2nc3c(c(=O)n(C)c(=O)n3C)n2Cc2ccccc2Cl)CC1 | 31.6µM*
Cc1nc(SCC(=O)Nc2cccc(Cl)c2)n[nH]1 | 2.8%
CC(Oc1ccccc1)C(=O)Nc1ccc(S(=O)(=O)N2CCOCC2)cc1 (stereo not drawn) | 2.8%
Cc1ccc2cc(CN(CCN3CCCC3)C(=O)Nc3ccc(F)cc3)c(=O)[nH]c2c1C | 4.7%
CCN1C(=O)[C@H]2[C@H]3[C@H](O)[C@H](O)C/C(=N/O[C@@H]4O[C@@H](COC(C)=O)[C@@H](OC(C)=O)[C@@H](OC(C)=O)[C@H]4OC(C)=O)[C@H]3CC[C@@H]2C1=O | 3.7%[11.4 µM]
CC(=O)OC1CC(O)C(C)(C)C2CC(OC(C)=O)[C@]3(C)C(CC[C@@]4(C)C(c5ccoc5)OC(=O)C5OC534)[C@]12C (stereo partly drawn) | -11.5%
Cc1nc2sccn2c1-c1nc(C2CC2)c(C(=O)c2ccc3c(c2)NC(=O)CO3)s1 | 1.5%
O=C1N=C(N2CCOCC2)CS1 | 3.9%
CCOC(=O)CCc1c(C)nc(SCCCn2c(=O)[nH]c3ccccc32)c(C#N)c1C | -13.7%
COc1ccc(C(=O)N2CCSC2=S)cc1OC | 6.7%
O=C(CNS(=O)(=O)c1cccs1)Nc1ccc2c(c1)OCCO2 | 4.1%
O=C(CSc1nnc(COc2ccccc2)n1Cc1ccco1)c1ccc(F)cc1 | ?
COCC(=O)NCc1ccc2c(c1)cc(C)n2C | -13.1%
c1ccc(C2=Nn3c(nnc3-c3cc(-c4ccccc4)n[nH]3)SC2)cc1 | -5.1%
CCOC(=O)N1CCN(C(=O)CSc2nnc(-c3cc(OC)ccc3OC)o2)CC1 | ?
COc1ccc(NC(=O)N(C2CCCCC2)C(C)c2ccco2)c(OC)c1 (stereo not drawn) | 3.2%
Cc1ccc(-n2ncc3c(Nc4c(C)n(C)n(-c5ccccc5)c4=O)ncnc32)c(C)c1 | -0.1%
Cc1c(C(=O)O)c2cc(O)ccc2n1-c1ccccc1 | -3.6%
COCCCn1c(=N)c(C(=O)NCc2ccc3c(c2)OCO3)cc2c(=O)n3ccccc3nc21 | ?
Fc1ccc(NCc2cn3ccccc3n2)cc1 | 14.0%
O=C(COc1ccc2oc3c(c2c1)CCCC3)Nc1ccccn1 | 5.4%
